D2 PAM: human D2 receptor positive allosteric modulation. P14416. DiscoveRx D2 beta-arrestin cells, luminescence, 90 min; 100% = 57 uM dopamine signal. potentiation, % (no concentration beside the values). hit rate 0.23% among 360,000. AID 624464; active = potentiation of 50% or more; inconclusive = 30% to 50%; inactive = 30% or less;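 note: compound concentration not given in the record; tested on top of an EC20 dose of dopamine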
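PathHunter beta-arrestin assay in DiscoveRx D2 cells. Compounds were added with an EC20 of dopamine (50 nM final) for 90 min at 37 deg C. Luminescence was read 1 h after detection reagent, with 57 uM dopamine as the EC100 control.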
TRPML1 ag: human mucolipin-1 channel agonism; Q9GZU1; TRPML1-expressing cells, Ca2+ dye fluorescence, FDSS; host cell line not named in the record; reference of the full effect not given here; activation, % (test concentration not listed); hit rate 0.12% among 410,000; AID 624414; in the data active = activation above about 50%; inconclusive = about 30% to 50%; inactive = below about 30%; note: 0% is about no effect; the text of the record puts the active cut at 80%
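Agonist activity was taken from a 110 s kinetic Ca2+ dye read on the FDSS after pinning compounds onto TRPML1-DL cells. The cells were seeded at 1,500/well with Tet inducer, incubated about 16 h, then dye-loaded at room temperature.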
Six1-Eya2 blk: Six1/Eya2 interaction inhibition. Q15475+O00167. AlphaScreen GST-Six1/His-Eya2 binding, biochemical; hits give low values; control for the full effect not named in the record. activity change, % (no concentration beside the values). hit rate 0.56% among 360,000; in the data active = activity change below about -65%; inconclusive = about -30% to -65%; inactive = above about -30%; note: % is set by controls: 0 for no effect and ±100 for the full control effect; compound concentration not given in the record
Target sequence (O00167 whole entry, looked up): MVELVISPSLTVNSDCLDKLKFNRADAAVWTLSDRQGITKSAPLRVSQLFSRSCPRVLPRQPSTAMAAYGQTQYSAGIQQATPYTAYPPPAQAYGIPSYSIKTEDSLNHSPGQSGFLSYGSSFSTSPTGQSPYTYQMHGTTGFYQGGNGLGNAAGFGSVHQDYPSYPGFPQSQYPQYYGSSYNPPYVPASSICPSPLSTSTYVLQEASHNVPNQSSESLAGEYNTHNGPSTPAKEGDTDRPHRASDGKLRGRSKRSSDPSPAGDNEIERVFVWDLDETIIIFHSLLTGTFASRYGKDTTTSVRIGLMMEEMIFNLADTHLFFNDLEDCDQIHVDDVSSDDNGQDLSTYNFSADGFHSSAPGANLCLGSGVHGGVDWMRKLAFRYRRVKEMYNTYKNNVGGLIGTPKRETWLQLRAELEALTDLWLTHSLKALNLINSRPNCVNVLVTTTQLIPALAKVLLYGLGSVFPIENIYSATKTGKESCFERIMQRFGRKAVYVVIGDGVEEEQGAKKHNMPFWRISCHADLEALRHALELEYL
Target sequence (Q15475 whole entry, looked up): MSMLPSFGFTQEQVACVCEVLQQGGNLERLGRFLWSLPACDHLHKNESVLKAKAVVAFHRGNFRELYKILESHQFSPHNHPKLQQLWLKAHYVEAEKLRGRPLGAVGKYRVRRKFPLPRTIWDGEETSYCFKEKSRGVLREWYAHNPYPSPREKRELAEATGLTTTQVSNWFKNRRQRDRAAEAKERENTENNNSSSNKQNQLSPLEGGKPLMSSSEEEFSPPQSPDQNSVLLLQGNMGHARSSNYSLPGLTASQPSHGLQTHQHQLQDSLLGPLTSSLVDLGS
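GST-Six1 + His-Eya2 (5X stock: 250/500 nM); Tris pH 8.0, 300 mM NaCl, 0.05% BSA, 0.02% Tween 20; GSH donor/Ni acceptor beads; 1 h 37 °C dark; AlphaScreen readout.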
D2 agonist: activates the human D2 dopamine receptor; P14416; DiscoveRx PathHunter D2 beta-arrestin, luminescence, 90 min; 100% = 57 uM dopamine signal; activation, % (no concentration beside the values); hit rate 0.084% among 360,000; in the data active = activation above about 40%; inconclusive = about 15% to 40%; inactive = below about 15%; note: compound concentration not given in the record; the text of the record calls up to 30% inactive
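Agonist mode: compounds alone added to overnight-plated D2 PathHunter cells for 90 min at 37 C, with 57 uM final dopamine (EC100) defining full response. Beta-arrestin recruitment detected by chemiluminescent reagent, read after 1 h at ambient temperature.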
TRPML1 blocker: human mucolipin-1 channel inhibition. activity change, negative = inhibition, % (no concentration beside the values). hit rate 0.02% among 390,000. TRPML1-inducible cells, Ca2+ dye fluorescence, FDSS; hits give low values; inhibition of EC80 agonist-evoked calcium signal. Q9GZU1; in the data active means activity change below about -50%; inconclusive means about -30% to -50%; inactive means above about -30%;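 note: stimulus is agonist 54-4 at its EC80 concentration; % is set by controls: 0 for no effect and ±100 for the full control effect; compound concentration not given in the record; the text of the record puts the active cut at -80%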
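Tet-induced TRPML1-DL cells loaded with Ca8 no-wash calcium dye were read kinetically on FDSS. Compound addition was followed by EC80 agonist 54-4 (4 uM final); inhibition was read over 110 s.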
PINK1 modulator: PINK1 expression modulation; PINK1 immunofluorescence, high-content cytometry, 24 h; Potency, µM (highest dose often 76.6 µM), for inactives: top-dose activation (PINK1 increase), usual class: activators; hit rate 0.2% among 410,000; AID 624263; active = well fitted activation curve with a large enough effect; inconclusive = small, poorly fitted or top-dose-only effect; inactive = flat fitted curve, though single readings scatter; cell line not stated here;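 note: potency is the fitted concentration of half-maximal effect; % of control where 0% means no effect; nearly all actives have a fitted effect of over 65% in size; a mitochondrial uncoupler was the plate control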
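PINK1 protein level read as immunofluorescence by microplate cytometer in a fixed, stained stable cell line after 24 h exposure to five compound concentrations, with CCCP as control.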
Active calls of the source: *; ? = inconclusive; . = not tested or not shown; [ ] = remark or other dose.

SMILES | D2 PAM | TRPML1 ag | Six1-Eya2 blk | D2 agonist | TRPML1 blocker | PINK1 modulator
COc1ccccc1NC(=S)N1CCN(Cc2ccc3c(c2)OCO3)CC1 | -15.1 | 0.3 | 3.7 | -1.9 | 31.9 | 0.6%
CCC1SC2=NC(C)=C(C(=O)OCCOC)C(/C=C/c3ccccc3OC)N2C1=O (stereo not given) | 1.3 | 1.8 | -5.3 | -2.8 | 32.0 | 3.9%
COc1ccc(N=Cc2ccc[nH]2)cc1 | -7.1 | 0.0 | -0.7 | -3.1 | -4.0 | -1.8%[38.3 µM]
Cc1noc(C)c1S(=O)(=O)N(C)C[C@H]1Oc2ccc(NC(=O)C3CCCCC3)cc2C(=O)N([C@H](C)CO)C[C@@H]1C | -2.5 | -0.7 | -16.0 | -1.3 | -3.3 | 0.8%
Cc1ccc2c(C)ccc(O)c2n1 | -19.0 | 0.4 | -0.3 | -2.6 | 12.5 | -0.1%
O=C(O)CCn1c(=O)c2ccccc2c2ccccc2c1=O | -26.1 | -0.8 | -2.1 | -3.4 | 1.2 | -0.1%
CNc1ccc(OC)cc1-n1cnc(-c2ccc([N+](=O)[O-])cc2)c1 | -2.7 | 0.9 | -10.1 | 2.2 | 7.8 | 8.1%
Cc1cc(C)c(NC(=S)NC(CO)(CO)CO)c(C)c1 | -2.1 | 0.7 | 8.2 | -0.3 | -15.1 | -0.7%
Cc1ccc(OCC(=O)NCc2ccccn2)cc1 | -11.4 | -1.0 | -1.2 | -2.0 | 17.4 | -0.6%
FC(F)(F)c1ccc(-c2nc3ccccc3s2)cc1 | -2.7 | -0.2 | 3.5 | -4.3 | . | 1.7%
C[C@@H]1COC(=O)[C@@H](Cc2ccc(F)cc2)CC/C=C\C[C@@H](CC(=O)NCCO)C(=O)N1 | -32.8 | -0.2 | 2.4 | -1.6 | 15.1 | -0.5%
NC(=O)[C@@H]1CC2(CC(c3cccc(NC(=O)COc4ccc(Cl)cc4)c3)=NO2)CN1C(=O)COc1ccc(Cl)cc1 (stereo not given in full) | -4.4 | -0.3 | ? | -0.3 | -21.0 | 2.8%
CCCCc1ccc(N2C(=O)[C@@H]3C(CC(N)=O)NC4(C(=O)Nc5ccc(F)cc54)[C@@H]3C2=O)cc1 (stereo not given in full) | 0.0 | -0.2 | -2.1 | -1.2 | 2.6 | 0.5%[38.3 µM]
CCOC(=O)[C@]12CCC=C1N(CCC1=CCCCC1)C(=O)[C@H](CC(=O)NCCC(C)C)C2 | . | -1.0 | 2.8 | . | . | 1.7%
COc1ccc(C2CN=NC23CCCc2ccccc2C3=O)cc1 (stereo not given) | 63.9* | 3.6 | 5.9 | 4.3 | 56.1 | 0.8%
Cc1ccc(NC(=O)Cc2n[nH]c(=O)c3ccccc23)cc1S(=O)(=O)N1CCCCCC1 | -16.3 | 3.5 | -6.6 | -2.1 | -9.1 | 1.0%
O=C(NCc1ccco1)C1CCCN1C(=O)Nc1cccc(Cl)c1 (stereo not given) | 3.9 | 0.5 | 2.6 | -2.5 | 2.8 | -0.1%
COc1ccccc1C(=O)NCCC(=O)NC(C)CCc1ccccc1 (stereo not given) | -34.6 | -0.6 | 0.3 | -5.4 | 10.0 | 0.5%
Cc1cc(S(=O)(=O)N2CCN(CC(=O)NC(C)(C#N)C3CC3)CC2)ccc1Br (stereo not given) | 6.5 | 0.4 | 0.4 | -4.1 | -5.7 | -0.6%
CNS(=O)(=O)c1cc(NC(=O)c2cnc(SC)n2-c2ccccc2)ccc1C | 3.0 | 0.4 | -7.0 | 5.1 | 35.5 | 2.9%
Clc1cccc(CSc2nnc([C@@H]3CCCN3)o2)c1 | 11.3 | 1.9 | -0.4 | -1.7 | 4.4 | 13.4%
COc1ccc(-c2nc(CSCC(=O)NC3CCCC3)c(C)o2)cc1OC | -3.3 | 0.7 | -1.3 | 5.2 | 42.7 | -0.6%
NC(=O)N/N=C/c1cn(-c2ccccc2)nc1-c1ccccc1 | -3.1 | 2.0 | -1.0 | 8.4 | -4.3 | 3.9%
CCOc1ccccc1C(=O)NC(C(=O)NCc1ccccc1OC)C(C)C (stereo not given) | -6.8 | 0.6 | -3.3 | -2.1 | 4.3 | 1.1%
COc1ccc([C@@H]2CC=C(C(=O)O)CN2S(=O)(=O)c2ccc(C)cc2)cc1OC | -1.1 | 0.0 | 1.4 | -2.0 | -0.7 | -0.8%
Following part:
SMILES | D2 PAM | TRPML1 ag | Six1-Eya2 blk | D2 agonist | TRPML1 blocker | PINK1 modulator
Cc1ccc(C(=O)N/C(=C\c2cn(S(=O)(=O)N(C)C)c3ccccc23)C(=O)N2CCCC2)cc1 | -5.7 | -0.5 | -6.3 | -0.2 | -16.9 | 1.1%
O=S(=O)(c1cccc2cccnc12)N1CCCc2ccccc21 | -3.8 | 0.7 | 2.8 | -4.9 | 16.6 | 2.0%
CCC(=O)N/N=C/c1ccc(OS(=O)(=O)c2ccccc2)cc1 | -2.0 | -0.5 | -11.4 | 2.6 | -3.9 | 1.2%
O=C(COC(=O)CCc1nc2ccccc2s1)NCc1ccco1 | -5.0 | -1.6 | 6.5 | -4.5 | 13.1 | -2.0%
Cc1nc(-c2ccccc2)sc1C1(C)CC(c2cccc([N+](=O)[O-])c2)=NO1 (stereo not given) | -1.7 | 0.2 | -19.7 | -1.0 | 11.2 | 0.6%
Cn1c(=O)cc(SCC(=O)N2CCN(c3ccccn3)CC2)c2ccccc21 | -7.2 | -0.2 | -7.3 | -3.1 | -19.3 | 5.5%
COCCNC(=O)c1cn(C)c2ccc(S(=O)(=O)N(C)C3CCCCC3)cc2c1=O | -0.2 | 0.7 | -13.3 | -0.4 | -13.0 | -2.9%
NC(=O)c1ccc(NC(=O)COC(=O)C2CC(=O)N(Cc3ccccc3)C2)cc1 (stereo not given) | -0.1 | 0.1 | 4.7 | -5.3 | -8.8 | 0.6%
Cc1cccc(-n2c(C)cc(/C=N\NC(=O)c3cccs3)c2C)c1 | -10.4 | 1.5 | -21.8 | -1.2 | 34.7 | 4.6%
COc1ccc(N(C(=O)c2snc(C(N)=O)c2N)C(C(=O)NCC2CCCO2)c2ccc(C)o2)cc1OC (stereo not given) | 1.1 | 0.2 | -1.3 | 3.2 | 2.2 | -0.6%
O=S(=O)(Nc1cccnc1)c1cccc(C(F)(F)F)c1 | -7.3 | 0.7 | 3.4 | -0.3 | 9.9 | -0.7%[38.3 µM]
CCN1CCN(Cc2ccc(NC(=O)c3cc(NC(=O)c4nccnc4N)cc(OC)c3)cc2C(F)(F)F)CC1 | -3.1 | 0.8 | -12.5 | 3.1 | 1.5 | -2.2%
CCCC(CCC)C(=O)NC1CCN(Cc2ccccc2)CC1 | -11.6 | 0.7 | 10.5 | 0.1 | -6.6 | 1.1%
CCO[C@@H]1OC(C(=O)N2CCN(Cc3ccc4c(c3)OCO4)CC2)=C[C@H](C2CCCCC2)[C@H]1CCCO | -17.2 | -0.4 | -9.2 | 5.4 | 51.2 | -1.9%
Cc1ccc(-n2cc(C(=O)c3ccc(F)cc3)nn2)cc1Cl | -9.8 | -0.3 | 8.7 | -2.3 | -8.6 | 3.0%
c1ccc(-c2nc(CSc3nnc(-c4cccs4)o3)cs2)cc1 | 0.7 | 3.0 | 6.3 | -0.6 | -2.9 | 3.7%
COc1ccc(C2/C(=C(/O)c3ccc(OC(C)C)cc3)C(=O)C(=O)N2CCCN2CCOCC2)cc1 (stereo not given) | -13.1 | 0.2 | -3.5 | -4.8 | 3.4 | 6.3%
CN1CCCC(C#CC(O)(c2ccccc2)c2ccccc2)C1 (stereo not given) | -5.6 | 1.1 | 8.9 | -5.6 | 12.4 | 0.7%
Cc1ccc(Cl)cc1N1CCN(S(=O)(=O)c2c(C)[nH]c(=O)[nH]c2=O)CC1 | -1.6 | -1.1 | -2.7 | -1.9 | 4.0 | 2.8%
CCCN(C)C1CN(Cc2cn(Cc3ccc(C)cc3)nn2)S(=O)(=O)C1 (stereo not given) | . | -0.8 | 4.0 | . | . | -0.1%
O=C(NCCOc1ccccc1)c1n[nH]c(=O)c2ccccc12 | -7.8 | 0.0 | -0.3 | -1.0 | 23.5 | -4.4%[38.3 µM]
O=C(c1ccco1)N1CCN(C(=O)c2ccco2)CC1 | -4.1 | -0.3 | 8.8 | -1.8 | . | 5.2%
Cc1c(NC(=S)NC(=O)CSc2ccc(Cl)cc2)cccc1C(=O)O | 10.4 | -0.5 | -5.0 | -4.6 | 3.9 | -1.6%
CSc1nnc(Cn2c(=O)sc3ccccc32)n1-c1ccccc1 | -6.4 | -0.1 | -2.2 | -2.6 | 1.6 | -0.2%
CC(=O)N1CCc2cc(S(=O)(=O)CCC(=O)N3CCC(C)CC3)ccc21 | -5.7 | -0.2 | 2.3 | -3.4 | 3.8 | -1.2%

3 compounds drawn at random from the list so far:
SMILES | D2 PAM | TRPML1 ag | Six1-Eya2 blk | D2 agonist | TRPML1 blocker | PINK1 modulator
O=C(c1ccco1)N1CCN(C(=O)c2ccco2)CC1 | -4.1 | -0.3 | 8.8 | -1.8 | . | 5.2%
O=S(=O)(Nc1cccnc1)c1cccc(C(F)(F)F)c1 | -7.3 | 0.7 | 3.4 | -0.3 | 9.9 | -0.7%[38.3 µM]
CCC(=O)N/N=C/c1ccc(OS(=O)(=O)c2ccccc2)cc1 | -2.0 | -0.5 | -11.4 | 2.6 | -3.9 | 1.2%

The listing continues:
SMILES | D2 PAM | TRPML1 ag | Six1-Eya2 blk | D2 agonist | TRPML1 blocker | PINK1 modulator
COc1cc2c(cc1N)-c1ccc(N)cc1C2 | -12.1 | 1.2 | -17.2 | -5.0 | 7.8 | 5.8%
O=C(O)c1ccccc1C(=O)Nc1n[nH]c(=S)s1 | -8.0 | 0.1 | 0.0 | -0.8 | 7.3 | 10.8%[38.3 µM]
Cc1ccc(C(=O)C2C(c3ccc(-c4ccccc4[N+](=O)[O-])o3)NC(=O)NC2(O)C(F)(F)F)cc1 (stereo not given) | 23.7 | -1.6 | -16.6 | 9.2 | 7.1 | -1.2%
O=[N+]([O-])c1ccc(S(=O)(=O)N/N=C/c2ccco2)cc1 | -8.5 | 0.4 | 0.8 | 7.2 | -15.9 | -0.4%
Cc1nc(C(=O)NNC(=O)c2cccc(Cl)c2)c(C(F)(F)F)o1 | -4.6 | -0.5 | 2.8 | -1.4 | 6.8 | 0.2%
CC(=O)NS(=O)(=O)c1ccc(N=c2ssc3c2-c2cc(C)ccc2NC3(C)C)cc1 | -27.8 | -0.2 | 13.4 | -9.2 | 3.7 | -1.6%
CCN1CCN(c2ccc(S(=O)(=O)N3CCCCC3)cc2NC(=O)COc2ccc(Cl)c(C)c2)CC1 | -28.0 | 0.5 | -6.7 | -5.2 | 23.6 | 12.6%
O=C(NC1CCCCC1)C(c1ccccn1)N(C(=O)c1csnn1)C1CCCCC1 (stereo not given) | -7.3 | 0.4 | 5.8 | -1.2 | 8.1 | -1.0%
CCOc1cc(C(=O)N(CC)CC(=O)Nc2c(F)cccc2F)ccc1OCC(=O)N1CCOCC1 | -28.7 | -0.8 | -1.2 | -6.6 | 16.3 | 4.2%
CSc1nn(Cc2ccc(Br)cc2)c(N(C(C)=O)C(C)=O)c1S(=O)(=O)c1ccccc1 | . | 0.3 | . | . | 3.9 | ?

High-throughput results from PubChem BioAssay.
